LANA-H2A inh: blocks KSHV LANA binding to histone H2A/H2B; Q9QR71; cell-free LANA-H2A/H2B peptide, fluorescence polarization; inhibition, % (concentration not given with the values); hit rate 0.6% among 320,000; in the data active = inhibition mostly above about 10%, no sharp cut-off; inactive = mostly below about 6.7%;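 note: stock transfer was 7.5 nL into about 10 µL; 0% = median of vehicle wells and 100% = median of positive control wells; one replicate is shown; the record names a cut of 25% in any replicate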
UCH37 DUB inh: inhibitors of human deubiquitinating enzyme UCH37 | AID 588478 | inhibition, % (test concentration not listed) | hit rate 0.33% among 330,000 | purified proteasome/UCH37, Ub-AMC cleavage fluorescence;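 active = mean of two replicates above 20%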;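 note: 0% = compound-free wells with enzyme and 100% = wells lacking proteasome; stock transfer was 100 nL into about 20 µL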
Target sequence (Q9Y5K5 whole entry, looked up): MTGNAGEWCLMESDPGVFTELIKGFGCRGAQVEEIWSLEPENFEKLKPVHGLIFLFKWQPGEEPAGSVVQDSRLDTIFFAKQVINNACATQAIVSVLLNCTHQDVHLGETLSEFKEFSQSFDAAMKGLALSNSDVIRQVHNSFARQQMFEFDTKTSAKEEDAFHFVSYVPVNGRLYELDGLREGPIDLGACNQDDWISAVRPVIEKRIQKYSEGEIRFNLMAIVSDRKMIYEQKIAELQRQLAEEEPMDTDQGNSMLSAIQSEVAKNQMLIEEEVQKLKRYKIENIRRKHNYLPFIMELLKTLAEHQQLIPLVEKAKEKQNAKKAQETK
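Material: human UCH37 enzyme supplied as purified proteasome complex / Amount: 0.15 nM proteasome as dispensed / Buffer or medium: pH 7.4 Tris-HCl (50 mM) with ovalbumin, ATP-MgCl2, DTT / Times: preincubation 30 min, reaction 25 min, room temperature / Technique: AMC fluorescence from Ub-AMC cleavage, excitation 355 nm, emission 460 nm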
HNF4A DNA FP: change in binding of human HNF4 alpha to DNA | P41235 | HNF4a-FITC DNA binding, fluorescence polarization, 1 h | activity change, % at 10 µM | hit rate 0.3% among 360,000 | AID 1224865; in the data active = activity change above about 30%, passing the limit was not always enough;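 note: controls were the assay level and a saturating level of protein; the project sought stronger binding though the title names inhibitors; some compounds called inactive have numbers as strong as hits; positive values seem to mean higher polarization but the record does not say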
E coli growth: inhibitors of Escherichia coli growth. OD600, 23 h; hits give low values. OD600 absorbance (test concentration not listed). hit rate 0.21% among 330,000;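 active = OD600 absorbance below the run mean of sample wells minus 3.6 SD, in any replicate, cut at about 0.56 in these data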;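 note: stock transfer was 300 nL into about 60 µL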
ALR inh: blocks human ALR sulfhydryl oxidase activity. AID 485317. P55789. hit rate 3.8% among 290,000. purified ALR, DTT oxidation, H2O2 HRP-luminol luminescence. inhibition, % (no concentration beside the values);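 active = mean and each replicate at 75% or more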;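 note: stock transfer was 7.5 nL into about 7.5 µL; 0% = neutral wells and 100% = wells with inactivated enzyme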
Target sequence (P55789 whole entry, looked up): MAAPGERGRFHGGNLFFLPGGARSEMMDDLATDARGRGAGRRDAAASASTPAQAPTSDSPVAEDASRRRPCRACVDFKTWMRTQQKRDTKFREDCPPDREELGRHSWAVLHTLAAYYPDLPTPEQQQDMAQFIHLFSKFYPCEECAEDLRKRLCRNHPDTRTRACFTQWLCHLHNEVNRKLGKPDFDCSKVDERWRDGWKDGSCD
Beta2AR agonist: activates human beta-2 adrenergic receptor causing internalization. response, % (no concentration beside the values). hit rate 0.43% among 340,000. AID 504454. Am2.2-beta2AR cells, FAP receptor internalization, flow cytometry; reference of the scale not given here;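 active = response above a set limit, near 3 SD of response in nonfluorescent compounds, cut at about 42% in these data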;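 note: stock transfer was 100 nL into about 11 µL; a reference agonist was the positive control; negative values mostly stem from fluorescent compounds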
FGF22 binding: FGF22 (human) thermal shift binding; Q9HCT0; recombinant FGF22 thermal shift, SYPRO orange fluorescence; percent of sucrose octasulfate shift, DMSO zero; calls only at 9.99 µM; hit rate 1.5% among 340,000;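 active = melting point raised past a set limit in the mean and every replicate; three in four hits are not shown here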
Target sequence (Q9HCT0 whole entry, looked up): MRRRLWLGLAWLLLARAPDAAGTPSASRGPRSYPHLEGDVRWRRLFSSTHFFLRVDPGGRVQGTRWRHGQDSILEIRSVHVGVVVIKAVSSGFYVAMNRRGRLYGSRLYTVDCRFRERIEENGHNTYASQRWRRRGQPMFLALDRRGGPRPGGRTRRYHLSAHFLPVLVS
* hit, by the source's call; i = inactive; x = no result given; & = joins results of further samples. Only part of the results is shown; the hit share may differ from the screen's.

SMILES	LANA-H2A inh	UCH37 DUB inh	HNF4A DNA FP	E coli growth	ALR inh	Beta2AR agonist	FGF22 binding
CCN(CC)N=Nc1ccc(S(=O)(=O)Nc2nc(C)cc(C)n2)cc1	-0.4&4.7	12.5&9.3	-0.7&-2.2	0.684&0.659	38.9&-0.8	-7.0&-1.6	i
O=S(=O)(c1ccc(=S)[nH]c1)N1CCCCCC1	37.8*	x	1.6	x	1.8	2.4	i
COc1ccc(N=Cc2c(O)n(-c3ccc(OC)cc3)c(=O)c3ccccc23)cc1	-3.8	-114.6	5.2	0.688	-7.8	8.2	i
CCN(CC)c1ccc(NC(=O)CCN2C(=O)c3ccccc3S2(=O)=O)c(C)c1	2.2	3.9	-3.1	0.628	66.9	0.9	i
COc1ccccc1N1CCN(C(=O)Oc2ccccc2)CC1	5.9	4.4	2.6	0.675	22.6	6.7	x
CCCN(CC1CC1)C(=O)Nc1ccccc1C	2.0	5.1	1.1	0.786	x	4.6	x
OC(COCC1COc2ccccc2O1)CN1CCN(c2ccccc2F)CC1 (centres undefined)	-4.5	5.6	-0.8	0.739	10.4	2.9	x
CCC(C)n1c(-c2cccc(S(=O)(=O)N3CCOCC3)c2)n[nH]c1=S (centres undefined)	x	4.1	-2.5	0.689	x	5.2	i
O=C(Nc1ccccc1)/C(=C/c1ccc(F)cc1)NC(=O)c1ccco1	0.6	0.2	-2.6	0.702	3.8	-4.6	i
Cc1cc2c(=O)n(Cc3ccco3)c(SCC(=O)c3ccc(Cl)s3)nc2s1	2.7	3.5	-2.6	0.734	0.1	52.1*	x
C=CCC[C@H](Cc1ccc(F)cc1)C(=O)OC[C@@H](NC(=O)[C@H](CC=C)CC(=O)NCCO)c1ccccc1	1.2	-2.4	-2.4	x	-6.6	-2.4	i
O=C(NCCN1CCCC1)c1ccc2c(c1)N(Cc1ccc(F)cc1)C(=O)c1ccccc1S2=O (centres undefined)	1.1	4.0	0.8	x	-19.6	9.5	i
NS(=O)(=O)c1ccc(NC(=S)NC(=O)C2CCCCC2)cc1	1.9	-1.2	1.1	0.654	4.7	-5.5	i
CCn1c(=N)n(CC(O)c2ccccc2)c2ccccc21 (centres undefined)	0.0	-0.7	-2.8	0.713	x	2.5	x
Cc1ccnc(NC(=O)c2ccc(Cl)c(S(=O)(=O)N3CCCCC3)c2)c1	-7.7	0.4	0.0	0.657	x	-1.8	i
CC(=O)Nc1sc(C)c(C)c1CN1CCN(S(=O)(=O)c2ccccc2)CC1	3.9	-1.0	0.0	0.769	0.2	2.2	x
O=C(CCC1CCCN(C(=O)c2cc(C3CC3)[nH]n2)C1)N1CCN(c2ccccn2)CC1 (centres undefined)	2.7	0.7	1.0	0.655	-3.2	-5.0	i
CCO[C@@H]1OC(C(=O)N2CCN(Cc3ccc4c(c3)OCO4)CC2)=C[C@H](c2ccc(Br)cc2)[C@H]1CCCO	6.3	2.3	2.5	x	-3.5	0.2	i
O=C(O)CCn1c(SCCc2ccccc2)nc2ccccc21	-2.4	3.7	-3.7	0.653	-1.2	-2.0	i
CCCNC(=O)NC1C(NC(=O)NCCC)N(C)C(=O)N1C (centres undefined)	-1.8	2.7	1.8	0.743	-2.0	5.3	x
O=C(NNc1ccc(F)cc1F)c1c(F)cccc1Cl	-0.3	1.4	6.2	0.7	45.6	-0.6	i
Cc1ccc(S(=O)(=O)N(C)CC(=O)NCCc2c[nH]c3ccccc23)cc1	0.4	1.5	2.6	0.668	x	0.7	i
COc1cc(NC(=O)c2ccc3c(c2)OCCO3)ccc1NC(=O)c1ccco1	0.4	-177.1	1.3	0.688	-1.7	-0.6	i
OCCC1CN(Cc2cccn2-c2ncccn2)CCN1Cc1ccccc1 (centres undefined)	7.4	3.3	-3.3	0.712	-4.6	-7.7	i

Printed as active in LANA-H2A inh (from the list above):
SMILES	LANA-H2A inh	UCH37 DUB inh	HNF4A DNA FP	E coli growth	ALR inh	Beta2AR agonist	FGF22 binding
O=S(=O)(c1ccc(=S)[nH]c1)N1CCCCCC1	37.8*	x	1.6	x	1.8	2.4	i

Going on with the list.
SMILES	LANA-H2A inh	UCH37 DUB inh	HNF4A DNA FP	E coli growth	ALR inh	Beta2AR agonist	FGF22 binding
CCc1nnc(SCC(=O)Nc2ccc(C(C)=O)cc2)nc1CC	0.7	x	0.2	x	98.9*	-8.5	x
CCCc1nnc(NC(=O)CCC(=O)N2CCN(S(=O)(=O)c3ccc(OC)cc3)CC2)s1	-3.0	0.7	2.0	0.656	-8.5	-2.4	i
Nc1nnc(-c2ccccc2)c(-c2ccccc2)n1	-5.2	3.6	-0.6	0.692	-5.2	-12.5	x
O=C(CNS(=O)(=O)c1ccc(Br)cc1)NC1CCCC1	1.1	3.2	-0.5	0.733	-4.0	-1.9	i
CCN(CC)CCCNC(=O)Cn1cnc2ccc(S(=O)(=O)N3CCC(C)CC3)cc2c1=O	8.4	0.8	3.8	0.654	-2.4	4.8	i
CN(C(=O)c1cccc(NC(=O)Cc2cccc(NC(=O)C3CCN(C(=O)C4CCCCC4)CC3)c2)c1)C1CC1	x	0.6	0.8	0.641	x	-4.0	i
O=C(O)Cn1c(=O)c2c3c(sc2n(Cc2ccc(F)cc2)c1=O)CCCC3	0.2	3.4	-0.5	0.659	2.2	x	i
O=C(CCc1ccccc1)NNC(=O)COc1ccc([N+](=O)[O-])cc1	-6.1	6.0	0.2	0.699	1.8	2.3	i
COc1ccc(NC(=O)C(=O)NCC(=O)Nc2cc(OC)ccc2OC)cc1	-7.4	-3.5	3.9	0.663	-13.7	3.0	i
CC(NC(=O)c1ccco1)c1nc(-c2ccc(C(C)(C)C)cc2)no1 (centres undefined)	2.0	5.8	2.1	0.694	x	-5.3	i
COc1ccc(/C=N\NC(=O)c2ccccc2Br)cc1COc1c(F)c(F)cc(F)c1F	-0.3	x	4.0	x	-10.2	11.3	i
C=CCN1C(=O)C2(OCCCO2)c2cccc(C)c21	-5.7	-0.1	2.3	0.656	-22.1	-5.9	i
OCc1cnc(SCc2ccccc2)n1Cc1ccccc1	6.0	0.7	4.5	0.643	-3.4	3.9	i
COc1ccc(Cl)cc1S(=O)(=O)N1CCN=C1Cc1ccccc1	1.4	2.0	1.2	0.688	-3.2	-8.8	i
CCCC(=O)OCCNc1cc(Sc2nc3ccccc3[nH]2)c2nonc2c1[N+](=O)[O-]	-6.2	10.3	-3.2	0.732	10.2	36.7	x
CCN1C(=O)C(=O)N(CC(=O)Nc2cccc(C(F)(F)F)c2)C1=O	7.4	2.8	2.1	0.671	-6.9	10.7	i
Cc1ccc(C(=O)N(CCc2ccccc2)Cc2ccccc2)cc1S(=O)(=O)N1CCCCC1	2.7	4.8	-0.2	0.737	-1.2	13.7	i
Cc1ccc2nc(SCC(=O)N3CCC(Cc4ccccc4)CC3)nc(=O)n2c1	x	2.8	-3.7	0.726	x	-8.9	i
CCc1nnc(NC(=O)CSc2nc(-c3ccccc3)c(-c3ccccc3)o2)s1	-6.2	1.6	4.1	0.749	-1.8	4.7	i
CC(C)(C)N1CC(c2nc3ccccc3n2Cc2ccc(F)cc2)CC1=O (centres undefined)	3.9	2.5	0.8	0.696	-2.5	-12.9	x
O=C(Nc1ccccc1C(=O)Nc1ccccc1C(=O)O)c1ccccc1	2.3	3.1	-1.1	0.648	97.2*	13.6	i
COc1ccccc1CNC(=O)COC(=O)Cc1c[nH]c2ccccc12	-2.9	6.8	3.1	0.691	-2.9	3.1	i
O=C(N/N=C/c1cccnc1)c1cccc(NC(=O)c2cccc(Br)c2)c1	-4.2	x	4.5	x	x	22.7	i
CCN(CC)S(=O)(=O)c1ccc(Cl)c(C(=O)NCC2CCCO2)c1 (centres undefined)	5.2	1.3	-2.7	0.667	-1.9	1.1	x
O=C(CN1C(=O)C2C3C=CC(C3)C2C1=O)OCC(=O)c1ccc([N+](=O)[O-])cc1 (centres undefined)	-3.4	0.6	-3.0	0.694	x	5.2	i
O=C(Nc1cc(Cl)ccc1-n1cncn1)c1ccco1	-2.6	1.0	6.8	0.709	x	1.6	i
Cc1cc(C(=O)Cn2nc(C(=O)O)c3ccccc3c2=O)c(C)n1C1CC1	0.4	3.6	1.4	0.666	x	8.0	i
COc1cccc(C(=O)Oc2ccc(/C=N/Nc3ccc(C(=O)O)cc3)cc2OC)c1	-1.3	x	-5.6	x	x	1.7	i
O=C(/C=C/c1cccs1)N1CCC2(CC1)Oc1ccc(F)cc1C(=O)C21CC(c2ccccc2)=NO1 (centres undefined)	-4.6	1.1	3.7	x	-4.5	-2.2	i
CC(=O)c1cnc(Oc2cc(Cl)ccc2Cl)nc1C	3.9	0.8	-3.6	0.664	49.4	-0.9	i
O=C(NCCCN1CCOCC1)c1ccc(NS(=O)(=O)c2ccccc2)cc1	5.0	-1.0	-3.0	0.677	-10.5	-2.0	i
CC(=O)c1ccc(NC(=O)CSc2ccc3nnc(-c4cccnc4)n3n2)cc1	3.6	0.3	1.5	0.605	-6.5	-2.3	i
Cc1noc(/C=C/Nc2ccc(F)cc2F)c1[N+](=O)[O-]	-9.0	x	0.2	x	2.4	-9.7	i
COC(=O)c1cccc(CSc2nnc(-c3ccco3)n2-c2ccccc2)c1	1.8	2.0	0.5	0.719	-19.6	4.7	x
Cc1ccccc1NC(=O)COC(=O)CCC(=O)c1cccs1	x	4.4	-4.7	0.674	x	1.7	i
CCOC(=O)c1nn(-c2ccc(OCC)cc2)c2nc(-c3ccco3)c(C#N)c(=O)n12	1.6	i	0.0	0.709	-6.0	7.3	i
COc1cccc(C(=O)N2CCN(S(=O)(=O)Cc3ccccc3)CC2)c1OC	4.4	1.2	2.5	0.625	-1.1	0.8	x
CCCC(=O)n1nc(-c2ccco2)nc1N	-0.4	0.1	2.4	0.79	7.3	8.2	x
O=C(COC(=O)c1cnc(Cl)c(Cl)c1)NCc1ccco1	1.3	3.0	-11.7	0.698	20.8	-2.2	i
C=CCn1c(C)cc(C(=O)CSc2nnc(NCc3ccccc3)s2)c1C	4.8	5.3	0.8	0.724	4.1	19.6	x
COc1ccc(NC(=O)CN2C(=O)NC3(CCCC3)C2=O)cc1S(=O)(=O)N1CCCCC1	x	2.8	-1.6	0.705	x	-12.3	i
Cc1ccc(NS(=O)(=O)c2c(C)[nH]c(=O)[nH]c2=O)c(C)c1	-3.0	2.8	2.6	0.697	-5.0	-0.4	i
COc1cccc(CC(=O)Nc2ccccc2N2CCCC2)c1	0.7	4.1	3.9	0.728	98.0*	-2.7	i
O=C(CSc1nc(-c2ccc(F)cc2)cs1)N1CCOCC1	0.2	2.9	2.6	0.67	-10.8	-1.7	x
CCCn1c(SCC(=O)N2c3ccccc3CC2C)n[nH]c1=O (centres undefined)	x	-1.5	5.4	0.689	x	2.1	i
CCOc1ccc(C2N(c3ccc(F)cc3)C(=O)C3CCCN32)cc1 (centres undefined)	2.0	0.9	4.8	0.748	-7.0	4.0	i
CCOc1ccc(CCNC(=O)COC(=O)c2ccc(F)c(S(=O)(=O)N3CCOCC3)c2)cc1OCC	-2.8	0.6	0.4	0.695	-5.3	1.8	i
CCOC(=O)c1c(C)n(C)c2ccc(OC)c(NC(=O)CCN3CCC(Cc4ccccc4)CC3)c12	1.8	4.2	1.5	0.622	-1.2	-2.5	i
COc1ccc(C(CCN2CCOCC2)c2c(OC)cc(OC)c3ccc(=O)oc23)cc1 (centres undefined)	x	-17.3	1.5	0.664	x	-1.7	i
CC(=O)Nc1sc(N/N=C/c2ccc(O)cc2)nc1-c1ccc(C)cc1	-4.7	x	1.1	x	48.5	24.8	i
O=C(CCc1ccccc1)NNC(=O)C12CC3CC(CC(C3)C1)C2	-8.1	2.5	-1.8	0.639	-3.9	8.6	x
Cc1cc2[nH]c3c4ccccc4nc(C)c3c2cc1C	x	x	-4.7	x	x	32.2	i
COc1ccccc1CN1C(=O)CNC1=S	-4.2	2.7	-0.9	0.703	38.5	-3.4	x

Screening results from PubChem BioAssay.
